# Compound activity as filed in PubChem.
# 2A StopGo: lowers the luciferase signal of an FMDV 2A StopGo reporter. human cells with a luciferase reporter of 2A StopGo recoding; control for the full effect not named in the record. Potency, µM (top dose mostly 57.9 µM), for the others: at the top dose signal change, negative = less light. 410,000 compounds, 1.2% hits. AID 1159524; active = well fitted falling curve with a large enough effect; inconclusive = small, poorly fitted or top-dose-only effect; inactive = no such curve, though single readings can be large or run the other way; tested in HEK293T cells; note: % is set by controls: 0 for no effect and ±100 for the full control effect; nearly all actives have a fitted effect of over 45% in size; luciferase light after 4 h
# LASV entry inh: blocks Lassa virus binding to or entry into cells; Lassa virus pseudotype entry inhibition, cell reporter; control for the full effect not named in the record; 300,000 compounds, 1.2% hits; AID 540256; Potency, µM (titrated, usually from 37.9 µM), inactives show top-dose activity change, negative = inhibition, usual class: inhibitors; active means well fitted inhibition curve with a large enough effect; inconclusive means small, poorly fitted or top-dose-only effect, or effect the other way; inactive means flat fitted curve, though single readings scatter; tested in HEK293 cells; note: % is set by controls: 0 for no effect and ±100 for the full control effect; nearly all actives have a fitted effect of over 50% in size; luciferase read-out
# RE007 growth inh: less growth of the S. pombe RE007 Vpr strain | S. pombe RE007 Vpr strain, BacTiter-Glo ATP luminescence, 24 h; control for the full effect not named in the record | Potency, µM (titrated, usually from 92.2 µM), inactives show at the top dose activity change, negative = less growth | 360,000 compounds, 0.21% hits | AID 651644; active = well fitted falling curve with a large enough effect; inconclusive = small, poorly fitted or top-dose-only effect; inactive = no such curve, though single readings can be large or run the other way;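 note: % is set by controls: 0 for no effect and ±100 for the full control effect; nearly all actives have a fitted effect of over 50% in size; the assay follows cell death caused by Vpr and the record does not say whether a fall means rescue or toxicity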
#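 Fission yeast strain RE007, carrying one chromosomally integrated HIV-1 vpr copy, was seeded at OD 0.01 in PMG+AL medium with 23 nL pinned compound. After 24 h at 30 °C and 99% humidity, viability was read by BacTiter-Glo luminescence.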
# Cruzain inh Det: inhibitors of Trypanosoma cruzi cruzain with detergent. AID 1478. Potency, µM, for inactives: max response, negative = inhibition, hits mostly inhibitors. purified cruzain, Z-FR-AMC fluorescence, 0.01% Triton. 200,000 compounds, 0.43% hits; active = well fitted curve in the direction sought with a large enough effect; inconclusive = small, poorly fitted or top-dose-only effect, or another doubt; inactive = no such curve, though single readings can be large; an effect the other way counts as inactive or inconclusive;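 note: plate controls were neutral wells for no effect and buffer without enzyme for full effect; nearly all actives have a fitted effect of over 40% in size; top concentration of the series not given in the record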
# Target sequence (P25779 123-467 limits assumed): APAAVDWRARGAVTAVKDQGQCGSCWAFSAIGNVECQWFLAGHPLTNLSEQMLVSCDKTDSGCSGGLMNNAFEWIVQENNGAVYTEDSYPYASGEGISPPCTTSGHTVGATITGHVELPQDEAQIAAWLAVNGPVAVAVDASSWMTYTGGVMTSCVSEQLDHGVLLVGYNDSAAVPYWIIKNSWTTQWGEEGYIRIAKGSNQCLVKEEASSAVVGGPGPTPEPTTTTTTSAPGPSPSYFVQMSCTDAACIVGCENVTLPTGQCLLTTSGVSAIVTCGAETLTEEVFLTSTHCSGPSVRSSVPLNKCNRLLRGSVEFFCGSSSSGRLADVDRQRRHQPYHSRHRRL
#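 Z-FR-AMC hydrolysis (2 uM substrate) by cruzain (1.5 nM) monitored kinetically at ex 360/em 450 nm after 15 min room-temperature compound exposure; 0.01% Triton X-100, pH 5.5, 5 mM DTT.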
# Cruzain inh noDet: blocks cruzain activity in detergent-free assay; P25779; 200,000 compounds, 2.3% hits; AID 1476; Potency, µM, without a hit: max response, negative = inhibition, actives largely listed as inhibitors; purified cruzain, Z-FR-AMC fluorescence, no detergent; active = well fitted curve in the direction sought with a large enough effect; inconclusive = small, poorly fitted or top-dose-only effect, or another doubt; inactive = no such curve, though single readings can be large; an effect the other way counts as inactive or inconclusive;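 note: plate controls were enzyme without inhibitor for no effect and buffer without enzyme for full effect; nearly all actives have a fitted effect of over 40% in size; top concentration of the series not given in the record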
#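 Detergent-free condition (0.00005% Triton X-100) in acetate buffer pH 5.5 with DTT. 1.5 nM enzyme and compound were pre-mixed 15 min, then 2 uM Z-FR-AMC substrate added; reaction progress from fluorescence change between first and third reads (60 s).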
# SARS PLP yeast: SARS-CoV PLP inhibition in yeast | Potency, µM (titrated, usually from 32.9 µM), for the others: at the top dose activity, positive = growth rescue | AID 485353 | S. cerevisiae expressing SARS-CoV PLpro, growth rescue; control for the full effect not named in the record | 330,000 compounds, 0.19% hits; note: 0% is about no effect; nearly all actives have a fitted effect of over 55% in size; growth read by luminescence after 48 h
# NS1 inh: blocks influenza NS1 protein function; S. cerevisiae slowed by influenza A NS1, growth recovery by OD600; Potency, µM (titrated, usually from 46.1 µM), for inactives: at the top dose activity, positive = more growth; 270,000 compounds, 0.4% hits; note: actives are rising curves; nearly all actives have a fitted effect of over 50% in size
#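 Read-out: OD600 growth recovery of NS1-expressing budding yeast. Cells grown overnight at 30C in -URA glucose medium, washed, resuspended and diluted 1:100 in 2% galactose assay medium, pH 6.0. Same strain lacking NS1 served as positive control.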
# Marburg entry inh: Marburg virus entry inhibition; Marburg virus pseudotyped entry inhibition, cell reporter; control for the full effect not named in the record; about a third of the inactives were read at about 46 µM; Potency, µM (titrated, usually from 37.8 µM), inactives show at the top dose activity change, negative = inhibition, hits mostly inhibitors; 300,000 compounds, 1.8% hits; AID 540276; active = well fitted inhibition curve with a large enough effect; inconclusive = small, poorly fitted or top-dose-only effect, or effect the other way; inactive = flat fitted curve, though single readings scatter; tested in HEK293 cells; about a fifth of its hits are not listed in these tables; note: % is set by controls: 0 for no effect and ±100 for the full control effect; luciferase read-out
# Active calls of the source: *; ? = inconclusive; . = not tested or not shown; & = joins results of further samples; [ ] = another dose, or the depositor's remark. Unless noted, calls come from the whole dose curve; as a rule, active means well fitted rising curve with a large enough effect; inconclusive means small, poorly fitted or top-dose-only effect; inactive means no such curve, though single readings can be large or run the other way. Potency is the fitted concentration of half-maximal effect. Random draw from the library; 4.8% or so of the library scored in one or more.
SMILES,2A StopGo,LASV entry inh,RE007 growth inh,Cruzain inh Det,Cruzain inh noDet,SARS PLP yeast,NS1 inh,Marburg entry inh
COc1cc(/C=C/C(=O)OCC(=O)NCc2ccc3c(c2)OCO3)cc(OC)c1OC,-9%,14%,17%,.,.,1%,.,?
COc1ccc(Cl)cc1NC(=O)c1cc2ccccn2n1,33%[activator],24%[46.1 µM],.,2.0%,1%,.,.,.
CNc1ccc(OC)cc1-n1cnc(-c2ccc([N+](=O)[O-])cc2)c1,-11%,-2%[46.1 µM],-7%,.,.,.,20%,?
CCCCCCC#Cc1ccc2c(c1)COc1c3ccccc3nn1-2,38%[activator],.,-11%,.,.,1%,3%,.
C=CCOC(=O)C1=C(C)NC(C)=C(C(=O)OCC=C)C1/C=C/c1ccccc1,-19%,-11%,6%,2.2%,-18%,1%,-13%,?
COc1ccc(N2CC(C)Cn3c2nc2c3c(=O)n(Cc3ccccc3)c(=O)n2C)c(OC)c1 (stereo not drawn),-22%,?,3%,.,.,-4%,.,?
N#Cc1cc(C(=O)c2ccccc2O)cn(-c2nccs2)c1=O,-4%,?,-14%,-11%,?,-25%,-46%,1%
N#CCC(=O)N/N=C/c1coc2ccccc2c1=O,-4%,24%,0%,.,.,3%,4%,-3%
CCOC(=O)Cn1c(=O)c(C#N)cn(C(C)C)c1=O,-11%,.,22%,.,.,0%,-1%,.
CC1CCCN(S(=O)(=O)c2ccc(C(=O)Nc3nnc(-c4ccncc4)o3)cc2)C1 (stereo not drawn),-13%,?,-3%,.,.,3%,.,?
COc1ccccc1N1CCN(CCc2c[nH]c3cc4c(cc23)OCO4)CC1,-24%,-10%,-7%,.,.,.,.,?
Cc1nn(Cc2ccc(Cl)c(Cl)c2)c(C)c1NC(=O)c1cc(CC(C)C)on1,?,.,3%,-8.7%,-13%,-2%,-135%,.
O=C(Nc1nnc(CCc2ccccc2)s1)C1CCCO1 (stereo not drawn),29%,22%,40%,2.2%,6%,-2%,5%,0%
COc1ccc2c(c1OC)C(=O)OC2Nc1ncccc1C (stereo not drawn),-10%,-2%,5%,-0.4%,-4%,2%,4%,?
O=C(N[C@H](C(=O)O)c1ccccc1)C1CCC(Cn2cnc3ccccc3c2=O)CC1 (stereo partly drawn),20%,?,6%,.,.,-1%,0%,20%[46.1 µM]
O=C(N/N=C/C(Br)=C/c1ccccc1)c1ccccc1F,36%[activator],?,?,.,.,-53%,-26%,?
CC(NC(=O)CCC1COc2ccccc2O1)c1ccccc1 (stereo not drawn),16%,22%[14.3 µM],7%,-0.8%,1%,3%,-62%,23%
C=CCN1CCN(C(=O)c2oc3ccccc3c2C)CC1,16%,11%,-8%,.,.,-4%,1%,18%
O=c1c(O)c(-c2cccs2)oc2ccccc12,15%,12%,?,0.5%,-26%,-19%,-27%,1%
Cc1cc(C)cc(-n2ncc3c2CCCC3NC(=O)c2cc(C)[nH]n2)c1 (stereo not drawn),?,?,9%,.,.,-6%,-21%,3.5µM*
COc1cccc(/C=N/NC(=O)c2cc3c(OC)ccc(OC)c3[nH]2)c1O,-20%,.,11%,.,.,14%,2%,.
Cn1nnc(NCc2cc(Br)ccc2OCc2cccs2)n1,.,-16%,-2%,-4.5%,32µM*,-1%,-10%,?
O=C1CN(C(=O)c2c(F)cccc2F)C(c2ccc(F)cc2)c2cc(F)ccc2N1 (stereo not drawn),3%,-27%[46.1 µM],4%,.,.,1%,0%,-21%[46.1 µM]
COC(=O)c1ccc(-n2c(C)cc(C(=O)CSc3ccc(NC(C)=O)cc3)c2C)cc1,?,?,28%,-7.6%,?,-39%,-3%,?
CC(=O)N1CCc2cc(S(=O)(=O)CCC(=O)O)ccc21,-14%,15%,10%,0.9%,9%,-1%,13%,4%[46.1 µM]

# Additional entries follow:
SMILES,2A StopGo,LASV entry inh,RE007 growth inh,Cruzain inh Det,Cruzain inh noDet,SARS PLP yeast,NS1 inh,Marburg entry inh
COc1ccnc(CN(C)C(=O)C2CCC(=O)N(CCN(C)C)C2)c1 (stereo not drawn),5%,.,-10%,.,.,-2%,3%,.
Cn1cccc1C(=O)NCCc1ccc(Cl)cc1,36%[activator],.,-8%,.,.,-6%,-2%,.
CN(C)CCCOc1ccc(Cl)cc1Br,-17%,44%[14.3 µM],-12%,0.6%,1%,-2%,4%,?
O=C(Cn1c(=O)oc2cc(S(=O)(=O)NCc3ccccc3)ccc21)N(CCO)Cc1ccccc1,38%[activator],-17%[46.1 µM],.,-2.8%,1%,.,.,.
CCC(CC)CN1C(Nc2ccccc2)=NC[C@@H]1C,-6%,.,1%,.,.,-7%,-13%,.
O=C(CN1CCN(Cc2ccccc2F)C1=O)NCc1ccccc1,-9%,2%[46.1 µM],.,3.9%,3%,.,.,2%[46.1 µM]
COc1ccc(Cn2c(=O)n(-c3ccccc3C)c(=O)c3c4c(sc32)CN(C(C)=O)CC4)cc1,0%,.,.,-4.9%,?,.,.,8%[46.1 µM]
CCCCNC(=O)CSc1nc2ccc(Nc3nc(N4CCOCC4)nc(N4CCOCC4)n3)cc2s1,-26%,.,3%,.,.,1%,13%,.
CCOC(=O)c1c(/N=C/c2cc(C)ccc2O)sc2c1CCN(C)C2,-18%,-2%,-5%,-2.1%,1%,-9%,-5%,0%
Cc1cccc(NC(=O)Cn2c(=O)n(Cc3ccccc3)c(=O)c3c(C)c(C)sc32)c1,-11%,-2%,1%,1.3%,?,-5%,-5%,?
COc1cc(NC2=CC(=O)CC(C)(C)C2)cc(OC)c1,.,-4%,-5%,-4.9%,15%,1%,5%,1%
CCN(CC)CCN1C(=O)c2oc3ccccc3c(=O)c2C1c1ccc(C)cc1 (stereo not drawn),-4%,6%,-8%,-1.3%,2%,-4%,-3%,-2%
C=CCn1c(CCNC(=O)c2ccccc2F)nnc1SCC(=O)Nc1ccccc1F,-14%,2%,2%,.,.,-1%,4%,5%
CCN(C(=O)c1c(C)oc2ncnc(N3CCCCC3)c12)c1cc(C)ccc1C,-23%,21%[46.1 µM],.,0.6%,0%,.,.,.
CSc1ncccc1C(=O)N1CCCC(Nc2ccc(C)c(C)c2)C1 (stereo not drawn),-21%,7%,13%,.,.,-5%,0%,-20%
O=C(CNC(=O)c1ccc(Cl)cc1Cl)NCCCn1ccnc1,-4%,4%,-9%,9.5%,7%,17%,3%,1%
CCCCc1ccc(-c2csc(/C(C#N)=C/c3ccco3)n2)cc1,-20%,0%,-17%,-2.4%,-18%,-3%,-6%,?
COc1ccc(-c2[nH]c(-c3ccc(C)cc3)nc2SCC(=O)NCc2ccco2)cc1OC,-22%,.,3%,-1.1%,2%,-3%,9%,-6%
CCn1c(SCC(=O)Nc2cccc(Cl)c2)nnc1-c1nonc1NC(C)=O,-9%,3%[46.1 µM],.,-4.0%,?,.,.,0%[46.1 µM]
COc1ccc(C2=NOC(COc3ccc([N+](=O)[O-])cc3)C2)cc1 (stereo not drawn),-28%,.,10%,.,.,-5%,4%,.
CC(Sc1nnc(-c2cccs2)n1N)C(=O)NCC1CCCO1 (stereo not drawn),-6%,-3%,-19%,.,.,-2%,.,3%[46.1 µM]
Cc1ccc(-c2noc(C3CCCCC3)n2)cc1,48%[activator],?,3%,0.8%,-5%,0%,1%,0%
CCO/C(C)=C1\C(=O)N(CC)c2ccccc21,-19%,-2%,-13%,-0.9%,-1%,2%,-4%,13%[46.1 µM]
CC(=O)C1C(c2ccco2)c2c(noc2C)CC1(C)O (stereo not drawn),14%,26%,12%,3.3%,-2%,.,-1%,-14%
CC(NCC1(N2CCOCC2)CCCCC1)C(=O)N1CCc2ccccc21 (stereo not drawn),-22%,-11%,-9%,1.6%,7%,9%,-1%,-24%&-24%

# (listing goes on)
SMILES,2A StopGo,LASV entry inh,RE007 growth inh,Cruzain inh Det,Cruzain inh noDet,SARS PLP yeast,NS1 inh,Marburg entry inh
COc1ccc(-c2nnc3ccc(SCC(=O)N4CCCCCC4)nn23)cc1OC,-20%,.,13%,-3.7%,-6%,-4%,-12%,.
CC(=O)Nc1ccc(NC(=O)Cn2c(CC(=O)N3CCCC3)nc3ccccc32)cc1,5%,-10%,1%,-1.4%,5%,1%,3%,16%
Cc1c(Cl)cccc1NC(=O)COC(=O)CCc1nc2ccccc2n1-c1ccccc1,-11%,-12%,-4%,-5.3%,14%,15%,3%,?
CC(=O)Nc1nc2ccccc2n1Cc1ccc(Cl)cc1,-17%,.,-15%,.,.,-1%,-36%,.
CN(C)c1ccc(C(CNS(=O)(=O)c2cc(F)ccc2F)N2CCOCC2)cc1 (stereo not drawn),-15%,-1%[46.1 µM],.,-3.0%,8%,.,.,.
CCN(CC)C(=O)c1sc2c(c1C)c(=O)n(-c1ccc(OC)cc1OC)c(=O)n2Cc1cc(C)ccc1C,-13%,-19%[46.1 µM],.,-1.1%,?,.,.,.
CC(C)c1ccc(NC2(C#N)C(=O)Nc3ccccc32)cc1 (stereo not drawn),1%,9%,-12%,-4.9%,1%,1%,-18%,4%
CCOc1ccccc1CN1CCN(Cc2cc(=O)c3ccccc3[nH]2)CC1CCO (stereo not drawn),-7%,.,-9%,.,.,-5%,6%,.
CC(=O)NC(C)C(=O)OCC(=O)Nc1ccc(Br)cc1 (stereo not drawn),1%,-8%,-15%,4.1%,-4%,22%,-7%,-10%
O=C(c1ccccc1)c1cn(CC(=O)N2CCOCC2)c2ccccc12,-1%,-5%,11%,-0.9%,9%,0%,-2%,9%
Cc1nn2cc(-c3cccc(Cl)c3)cnc2c1Cl,40%[activator],?,-11%,.,.,2%,.,4.5µM*
CCCSc1ncc(Cl)c(C(=O)Nc2ccc(S(=O)(=O)N3CCCC(C)C3)cc2)n1 (stereo not drawn),18%,-27%[46.1 µM],.,-9.6%,?,.,.,-12%[46.1 µM]
Cc1onc(-c2c(F)cccc2Cl)c1C(=O)Nc1cc(S(=O)(=O)N2CCCCC2)ccc1O,?,?,15%,.,.,.,.,?
